# Bioassay records (PubChem BioAssay)
# PINK1 modulator – PINK1 expression modulation; PINK1 immunofluorescence, high-content cytometry, 24 h; Potency, µM (top dose mostly 76.6 µM), inactives show at the highest dose activation (PINK1 increase), hits mostly activators; hit rate 0.2% among 410,000; active = well fitted activation curve with a large enough effect; inconclusive = small, poorly fitted or top-dose-only effect; inactive = flat fitted curve, though single readings scatter; cell line not stated here;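 note: potency is the fitted concentration of half-maximal effect; % of control where 0% means no effect; nearly all actives have a fitted effect of over 65% in size; a mitochondrial uncoupler was the plate control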
#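 A stable cell line was treated with compounds at 5 concentrations for 24 hours, with CCCP as control. PINK1 levels and mitochondrial localization were measured by immunofluorescence with mitochondrial, cell and nuclear markers after fixation, read by laser-scanning cytometry.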
# TRPML1 ag – activates the human TRPML1 channel. Q9GZU1. TRPML1-expressing cells, Ca2+ dye fluorescence, FDSS; host cell line not named in the record; reference of the full effect not given here. activation, % (test concentration not listed). hit rate 0.12% among 410,000. AID 624414; in the data active = activation above about 50%; inconclusive = about 30% to 50%; inactive = below about 30%; note: 0% is about no effect; the text of the record puts the active cut at 80%
# Target sequence (Q9GZU1 whole entry, looked up): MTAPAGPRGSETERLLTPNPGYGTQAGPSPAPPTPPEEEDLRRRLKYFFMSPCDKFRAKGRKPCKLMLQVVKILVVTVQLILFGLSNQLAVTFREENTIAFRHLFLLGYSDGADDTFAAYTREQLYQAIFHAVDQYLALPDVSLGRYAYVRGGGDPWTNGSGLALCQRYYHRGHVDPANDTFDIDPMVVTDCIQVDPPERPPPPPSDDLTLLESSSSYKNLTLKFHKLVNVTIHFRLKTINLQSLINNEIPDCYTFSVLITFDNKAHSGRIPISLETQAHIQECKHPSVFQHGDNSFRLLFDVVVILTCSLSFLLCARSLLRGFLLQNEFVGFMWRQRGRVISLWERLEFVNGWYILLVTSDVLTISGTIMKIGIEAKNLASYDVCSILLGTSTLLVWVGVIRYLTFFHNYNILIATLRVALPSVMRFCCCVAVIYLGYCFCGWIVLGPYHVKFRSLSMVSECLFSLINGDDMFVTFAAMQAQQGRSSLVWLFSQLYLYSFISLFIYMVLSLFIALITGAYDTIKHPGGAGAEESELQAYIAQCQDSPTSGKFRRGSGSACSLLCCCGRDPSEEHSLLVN
#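 Agonist activity was taken from a 110 s kinetic Ca2+ dye read on the FDSS after pinning compounds onto TRPML1-DL cells. The cells were seeded at 1,500/well with Tet inducer, incubated about 16 h, then dye-loaded at room temperature.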
# * marks the source's active call; other numbers are inactive results; ? = inconclusive; & = joins results of further samples. These rows are one share of the data; the hit share may differ from the screen's.
SMILES,PINK1 modulator,TRPML1 ag
O=C(Cn1ncc2c3ccccc3n(Cc3ccc(F)cc3)c2c1=O)NCCC1=CCCCC1,2.2%,-0.8
O=C1C2C3CCCC3=C3CCCC3C2C(=O)N1c1ccccc1Cl (stereo not drawn),-0.3%,0.9
CC(=O)N1CCC(N(Cc2ccco2)C(=O)Nc2ccc(Br)cc2F)CC1,-0.9%,-0.3
O=C(Nc1sc2c(c1C(=O)NCc1ccccc1)CCCC2)c1cc(=O)c2ccccc2o1,-0.6%,0.1
CCOc1ccc(-c2nnc(SCC(=O)NCc3ccc(Cl)cc3)o2)cc1,-1.5%,-0.8
CCOC(=O)c1ccc(NC(=O)CCc2c(C)nc3c(c(C)nn3C)c2C)cc1,?,2.4
O=C(COc1ccccc1)N(Cc1cccnc1)c1nc2c(F)cccc2s1,-1.4%,-0.3
COc1ccccc1CCNc1ncnc2c1nnn2C,18%,2.5
CCOC(=O)c1ccc(NC(=O)CSc2c(C(C)C)cnc3c2c(=O)n(C)c(=O)n3C)cc1,0.2%,1.9
CCc1nnc(NC(=O)c2nc(SCc3ccc(F)cc3)ncc2Cl)s1,1.1%,0.0
COc1cc(N2C(=O)CSC23C(=O)N(Cc2cccc(F)c2)c2ccccc23)cc(OC)c1OC (stereo not drawn),-0.6%,2.6
COCCNC(=O)c1ccc2c(c1)N=C(C)c1cc(C)ccc1S2,4.6%,-0.6
CCCS(=O)(=O)N1CC(=O)N(c2ccccc2F)C(C)(C(=O)NC2CCCCCC2)C1 (stereo not drawn),1.9%,0.5
CCOc1ccccc1NC(=O)Cn1nnc2sc(-c3ccccc3)cc2c1=O,2.9%,1.8
Cc1ccc2nc(N3CCN(c4cccc(C(F)(F)F)c4)CC3)c3nnnn3c2c1,1.7%,2.6
Cc1nc2ccn(Cc3cccs3)c(=O)c2cc1C(=O)NCc1ccccc1,11%,-0.3
Cc1nc(-c2ccc(S(=O)(=O)N3CCN(c4ccc(F)cc4)CC3)cc2)co1,-3.6%,2.2
C=CCc1ccccc1OCc1nc2ccc(C)cc2[nH]1,40µM*,3.4
Cc1ccc(N2CC(NC(=O)CCc3ccccc3)CC2=O)cc1C (stereo not drawn),-0.3%,-1.2
CCOC(=O)N1CCc2c(sc(NCc3cc(OC)ccc3OC)c2C(=O)Nc2cc(OC)ccc2OC)C1,-0.2%,2.1
Cc1ccc(Nc2cc(-c3ccccc3)nc(C)n2)cc1,0.1%,0.0
CCc1nnc(SCc2cccc(F)c2)c2cc3sc(C)cc3n12,2.7%,0.3
CCOCCc1nn2c(=O)cc(COC(=O)Cc3ccccc3)nc2s1,0.6%,-0.1
CCCCNc1ncnc2c1nnn2C,7.3%,1.0
CCOC(=O)c1cnc2ccc(Br)cc2c1NCCN1CCOCC1,-4.3%,0.3
# Next section.
SMILES,PINK1 modulator,TRPML1 ag
CCOC(=O)C1CCCN(S(=O)(=O)c2ccc3c(c2)CCCN3C(C)=O)C1 (stereo not drawn),-0.6%,0.7
CCOC(=O)c1c(NC(=O)c2cc3nc(-c4ccccc4)cc(C(F)(F)F)n3n2)sc2c1CCC(C)C2 (stereo not drawn),0.4%,-0.1
Cc1cc2n(n1)CCCN2C(=O)Nc1cccc(C)c1C,1.1%,1.3
Nc1nc(Nc2cccc(C(F)(F)F)c2)sc1C(=O)c1ccccc1,0.4%,0.0
COc1ccc(CNC(=O)c2cnn3c(C)c(Cc4c(F)cccc4Cl)c(C)nc23)cc1,0.4%,1.2
CN(C)N=Nc1ccc(/C=C2\C=Cc3ccccc32)cc1,0.1%,-0.2
CCOc1ccccc1NC(=O)c1nnn(CC(=O)Nc2ccccc2CC)c1N,0.6%,-0.8
Cc1ccc(C(=O)Nc2ccc(-n3c(C)nc4ccccc4c3=O)cc2)cc1[N+](=O)[O-],-1.5%,0.1
Nc1ncnc2c1nc(Br)n2C1CC(O)C(CO)O1 (stereo not drawn),-0.3%&0.4%,-0.4
CCOc1ccccc1C(=O)Nc1cc2c(cc1N1CCCCC1)n(C)c(=O)n2C,0.1%,0.2
CCOc1ccccc1N(CC)C(=O)Cn1ncc2c([nH]c3ccccc32)c1=O,5.2%,2.1
Cc1ccc(NC(=O)Cn2c(=O)oc3cc(S(=O)(=O)N4CCCCC4)ccc32)c(Cl)c1,4.4%,0.9
Cc1ccc(C)c(N(C)C(=O)C2CCN(S(=O)(=O)c3cccc4nsnc34)CC2)c1,0.6%,-0.8
COc1ccc(N2C(=O)CSC23C(=O)N(CC(=O)NCCc2ccccc2)c2ccccc23)cc1 (stereo not drawn),29%,-0.2
COc1ccc(-n2ncc(C(=O)N3CCc4ccccc4C3)c2C2CCN(C(=O)OC(C)(C)C)CC2)cc1,0.4%,0.8
CCOc1ccc(CNC(=O)C2CCCCN2S(=O)(=O)c2ccc(F)cc2)cc1OC (stereo not drawn),1.5%,0.9
Clc1cccc(Nc2ncnc3c2nc2n3CCCCC2)c1,5.4%,-0.3
COc1ccc(N2CC(c3nc(-c4cc(OC)c(OC)c(OC)c4)no3)CC2=O)cc1Cl (stereo not drawn),0.6%,0.9
O=C(Cn1cc(SCc2ccc(C(F)(F)F)cc2)c2ccccc21)N1CCCC1,3.6%,0.0
CC(=O)c1cccc(NC(=O)C2CCCN(C(=O)c3cnn(-c4ccccc4)c3-n3cccc3)C2)c1 (stereo not drawn),2.9%,-0.5
CC(C)n1cc2c(c1-c1ccccc1Cl)c(=O)n(C)c(=O)n2C,-1.3%,0.5
Cc1cc(C)c(C(=O)Nc2ccccc2)c(SCC(=O)Nc2ccc(Br)cc2C)n1,9.9%,3.0
Cc1cccc(C)c1Nc1sc(C(=O)c2ccccc2)c(N)c1C(=O)Nc1ccc(F)cc1,45µM*,3.9
CCOC(=O)c1c(NC(=O)CCCOc2ccc(C(C)(C)C)cc2)sc2c1CCCC2,1.2%,-0.7
Cc1cccc(CNC(=O)C2CCN(S(=O)(=O)c3ccc4c(c3)CCCN4C(=O)C3CCC3)CC2)c1,-0.9%,0.0
# Carrying on:
SMILES,PINK1 modulator,TRPML1 ag
O=C(Nc1ccc(-c2nc3cc(Cl)ccc3o2)cc1)c1cc(Br)ccc1Cl,15%,1.5
CCc1nnc(SCc2nc(-c3ccccc3Cl)oc2C)c2cc3sc(C)cc3n12,1.5%,-0.6
COc1ccc(NC(=O)c2ccc3c(c2)nnn3C2CCCC2)cc1Cl,1.6%,2.3
Cc1nc2cccnc2n1C1CCN(S(=O)(=O)c2ccc(C(C)C)cc2)CC1,-1.0%,4.0
CCOc1ccc(OCC)c(NC(=O)c2cc(CN3CCOCC3)on2)c1,-0.5%,0.5
CSc1nn(Cc2cccc(C)c2)c(N)c1S(=O)(=O)c1ccccc1,0.8%,1.6
CCCOC(=O)c1cccc(NC(=O)CSc2nnc3cc(C)c4ccccc4n23)c1,1.5%,2.1
COc1ccc(C)cc1NC(=O)CC(=O)Nc1ccc2nc3n(c(=O)c2c1)CCCCC3,0.8%,-0.2
Cc1ccc(Cl)cc1NC(=O)C1CCCN(S(=O)(=O)c2c(C)noc2/C=C/N(C)C)C1 (stereo not drawn),0.0%,0.9
CCOc1ccc2oc(=O)cc(CN3CCN(Cc4ccc(C)cc4)CC3)c2c1,0.8%,2.4
Cc1cc(C)c(S(=O)(=O)NCCc2sc(-c3cccnc3)nc2C)c(C)c1,-1.7%,1.7
Cc1ccc(-c2c3c(=O)n(C)c(=O)n(C)c3c3c(-c4cccc(C)c4)nc4ccccc4n23)cc1,2.0%,-0.6
COc1cccc(C(=O)Nc2cccc(OCc3cc(=O)n4cc(C)ccc4n3)c2)c1,10.0%,0.6
O=C(CSc1nc2ccccc2nc1Cc1ccccc1)N1CCN(c2ccccc2)CC1,10.0%,1.2
COc1ccccc1N1CCN(S(=O)(=O)c2ccc(F)c(C(=O)Nc3ccc(Cl)cc3C(F)(F)F)c2)CC1,2.0%,7.1
CCOc1ccc(Nc2ncnc3c2c(-c2ccccc2)cn3-c2cccc(C)c2)cc1,0.8%,1.0
CS(=O)(=O)c1ccccc1NC(=O)COc1ccccc1C(=O)Nc1ccccc1,1.2%,-0.5
Cc1ccc(Cl)cc1N1CCN(C(=O)CCS(=O)(=O)c2cc(Br)cc3c2N(C(=O)C2CC2)CC3)CC1,0.1%,0.8
CC(C)c1ccc(S(=O)(=O)N2CCN(CC(=O)Nc3ccccc3C(F)(F)F)CC2)cc1,-1.9%,0.5
CCOC(=O)c1ccc(NC(=O)C(CC)Sc2nnc3c4ccccc4n(C)c3n2)cc1 (stereo not drawn),0.6%,0.1
Cc1ccc(S(=O)(=O)Nc2cc3c(cc2N2CCOCC2)n(C)c(=O)n3C)cc1,0.6%,-0.7
COc1ccc(OC)c(CNC(=O)c2cc3c(=O)oc4ccc(C)cc4c3s2)c1,0.7%,-0.8
CC(=O)N1CCCc2ccc(NS(=O)(=O)c3ccc(F)cc3F)cc21,2.4%,1.7
CCCS(=O)(=O)N1CCC(N2CCN(Cc3ccc(F)cc3)C(=O)C2=O)CC1,0.9%,0.5
COc1ccc(OC)c(-c2cc(C(=O)NC(C)c3ccccc3)no2)c1 (stereo not drawn),2.8%,2.1
# The results go on:
SMILES,PINK1 modulator,TRPML1 ag
CCCN1CNc2c(c(=O)[nH]c(=S)n2CCc2ccccc2C)C1,0.1%,-0.5
Cc1cccc(CSc2ncc(Cl)c(C(=O)Nc3nc4ccc(F)cc4s3)n2)c1,1.3%,0.1
CCOC(=O)c1ccc(NC(=O)CC2Nc3ccccc3NC2=O)cc1 (stereo not drawn),2.4%,0.0
COc1cc(OC)c(NC(=O)CSc2cc(=O)n(C)c3ccc(Cl)cc23)cc1Cl,1.0%,-0.5
CCC(C(=O)NCCc1cc(OC)ccc1OC)n1nc(C)c2sc3ccccc3c2c1=O (stereo not drawn),3.2%,2.9
Cc1cccc(N2CCN(CCNC(=O)Nc3ccc(Cl)cc3)CC2)c1C,4.3%,-0.6
Cc1ccc(-c2nnc(Nc3ccc(O)cc3)c3ccccc23)cc1S(=O)(=O)N1CCOCC1,2.0%,-0.8
Cc1cccc(N2CCN(C(=O)C3CCCN(S(=O)(=O)c4ccc5c(c4)oc(=O)n5C)C3)CC2)c1C (stereo not drawn),1.4%,0.0
COc1ccc(-n2ncc(C(=O)N3CCN(Cc4ccccc4)CC3)c2C2CCN(C(=O)OC(C)(C)C)CC2)cc1,0.6%,0.7
Cc1nn(-c2ccccc2)c2nc(C3CC3)cc(C(=O)Nc3cccc(F)c3)c12,2.6%,-0.1
CCOc1ccc(NC(=O)CSc2oc(-c3cccs3)nc2S(=O)(=O)c2ccc(Cl)cc2)cc1,-1.1%,0.3
Cc1ccc(-c2nc(CS(=O)(=O)CC(=O)NCc3ccc(Cl)cc3)c(C)o2)cc1,-1.4%,-0.5
Cc1ccc(S(=O)(=O)NCCc2nnc3ccc(SCc4ccccc4F)nn23)cc1,-0.1%,-0.2
COc1ccc(-n2ncc(C(=O)Nc3ccc4c(c3)OCO4)c2C2CCN(C(=O)OC(C)(C)C)CC2)cc1,0.9%,0.6
CCOC(=O)c1ccccc1NC(=O)CN1C(=O)CC(c2ccccc2)Sc2ccccc21 (stereo not drawn),1.6%,4.9
O=C(COc1ccccc1C(=O)Nc1ccccc1)Nc1ccccc1F,0.6%,0.6
CCc1cc2c(cc3c(=O)n(CC(=O)NCCc4ccccc4)ncn32)s1,0.8%,0.9
O=S(=O)(NCc1nc2cccnc2n1Cc1ccc(F)cc1)c1ccc2c(c1)CCCC2,-0.8%,2.6
CCc1ccc(NCc2cc3cc4c(cc3n(CC(=O)Nc3cccc(OC)c3)c2=O)OCO4)cc1,0.1%,13
CCOc1ccc(CCNC(=O)CN2C(=O)COc3ccc(S(=O)(=O)N4CCC(C)CC4)cc32)cc1,-0.7%,3.4
CCC(=O)N1CCc2cc(S(=O)(=O)NC(C(=O)Nc3cc(OC)cc(OC)c3)C(C)C)ccc21 (stereo not drawn),1.6%,-0.4
Cc1cccc(CNC(=O)CCCN2C(=O)c3cccnc3Oc3ccccc32)c1,0.7%,2.0
Cc1cccc(C(=O)OCc2cc(=O)n3nc(-c4cccs4)sc3n2)c1,11%,-1.0

# Ordered by number of heavy atoms (ascending): some entries from above
SMILES,PINK1 modulator,TRPML1 ag
CCCN1CNc2c(c(=O)[nH]c(=S)n2CCc2ccccc2C)C1,0.1%,-0.5
Cc1cccc(C(=O)OCc2cc(=O)n3nc(-c4cccs4)sc3n2)c1,11%,-1.0
CCc1cc2c(cc3c(=O)n(CC(=O)NCCc4ccccc4)ncn32)s1,0.8%,0.9
Cc1cccc(CSc2ncc(Cl)c(C(=O)Nc3nc4ccc(F)cc4s3)n2)c1,1.3%,0.1
Cc1cccc(CNC(=O)CCCN2C(=O)c3cccnc3Oc3ccccc32)c1,0.7%,2.0
Cc1ccc(S(=O)(=O)NCCc2nnc3ccc(SCc4ccccc4F)nn23)cc1,-0.1%,-0.2
O=S(=O)(NCc1nc2cccnc2n1Cc1ccc(F)cc1)c1ccc2c(c1)CCCC2,-0.8%,2.6
CCOC(=O)c1ccccc1NC(=O)CN1C(=O)CC(c2ccccc2)Sc2ccccc21 (stereo not drawn),1.6%,4.9
Cc1ccc(-c2nnc(Nc3ccc(O)cc3)c3ccccc23)cc1S(=O)(=O)N1CCOCC1,2.0%,-0.8
Cc1cccc(N2CCN(C(=O)C3CCCN(S(=O)(=O)c4ccc5c(c4)oc(=O)n5C)C3)CC2)c1C (stereo not drawn),1.4%,0.0
COc1ccc(-n2ncc(C(=O)Nc3ccc4c(c3)OCO4)c2C2CCN(C(=O)OC(C)(C)C)CC2)cc1,0.9%,0.6
COc1ccc(-n2ncc(C(=O)N3CCN(Cc4ccccc4)CC3)c2C2CCN(C(=O)OC(C)(C)C)CC2)cc1,0.6%,0.7
